nsP2pro inh = inhibitors of chikungunya virus nsP2 protease. Q8JUX6. FRET peptide cleavage, nsP2pro, fluorescence 1 h. 1.1% of 31,000 active. Potency, µM (highest dose often 24.9 µM), for inactives: at the top dose activity change, negative = inhibition, usual class: inhibitors; active means well fitted inhibition curve with a large enough effect; inconclusive means small, poorly fitted or top-dose-only effect; inactive means no such curve, though single readings can be large or run the other way; note: nearly all actives have a fitted effect of over 60% in size; a reference inhibitor and vehicle were the controls
Target sequence (Q8JUX6 whole entry, looked up): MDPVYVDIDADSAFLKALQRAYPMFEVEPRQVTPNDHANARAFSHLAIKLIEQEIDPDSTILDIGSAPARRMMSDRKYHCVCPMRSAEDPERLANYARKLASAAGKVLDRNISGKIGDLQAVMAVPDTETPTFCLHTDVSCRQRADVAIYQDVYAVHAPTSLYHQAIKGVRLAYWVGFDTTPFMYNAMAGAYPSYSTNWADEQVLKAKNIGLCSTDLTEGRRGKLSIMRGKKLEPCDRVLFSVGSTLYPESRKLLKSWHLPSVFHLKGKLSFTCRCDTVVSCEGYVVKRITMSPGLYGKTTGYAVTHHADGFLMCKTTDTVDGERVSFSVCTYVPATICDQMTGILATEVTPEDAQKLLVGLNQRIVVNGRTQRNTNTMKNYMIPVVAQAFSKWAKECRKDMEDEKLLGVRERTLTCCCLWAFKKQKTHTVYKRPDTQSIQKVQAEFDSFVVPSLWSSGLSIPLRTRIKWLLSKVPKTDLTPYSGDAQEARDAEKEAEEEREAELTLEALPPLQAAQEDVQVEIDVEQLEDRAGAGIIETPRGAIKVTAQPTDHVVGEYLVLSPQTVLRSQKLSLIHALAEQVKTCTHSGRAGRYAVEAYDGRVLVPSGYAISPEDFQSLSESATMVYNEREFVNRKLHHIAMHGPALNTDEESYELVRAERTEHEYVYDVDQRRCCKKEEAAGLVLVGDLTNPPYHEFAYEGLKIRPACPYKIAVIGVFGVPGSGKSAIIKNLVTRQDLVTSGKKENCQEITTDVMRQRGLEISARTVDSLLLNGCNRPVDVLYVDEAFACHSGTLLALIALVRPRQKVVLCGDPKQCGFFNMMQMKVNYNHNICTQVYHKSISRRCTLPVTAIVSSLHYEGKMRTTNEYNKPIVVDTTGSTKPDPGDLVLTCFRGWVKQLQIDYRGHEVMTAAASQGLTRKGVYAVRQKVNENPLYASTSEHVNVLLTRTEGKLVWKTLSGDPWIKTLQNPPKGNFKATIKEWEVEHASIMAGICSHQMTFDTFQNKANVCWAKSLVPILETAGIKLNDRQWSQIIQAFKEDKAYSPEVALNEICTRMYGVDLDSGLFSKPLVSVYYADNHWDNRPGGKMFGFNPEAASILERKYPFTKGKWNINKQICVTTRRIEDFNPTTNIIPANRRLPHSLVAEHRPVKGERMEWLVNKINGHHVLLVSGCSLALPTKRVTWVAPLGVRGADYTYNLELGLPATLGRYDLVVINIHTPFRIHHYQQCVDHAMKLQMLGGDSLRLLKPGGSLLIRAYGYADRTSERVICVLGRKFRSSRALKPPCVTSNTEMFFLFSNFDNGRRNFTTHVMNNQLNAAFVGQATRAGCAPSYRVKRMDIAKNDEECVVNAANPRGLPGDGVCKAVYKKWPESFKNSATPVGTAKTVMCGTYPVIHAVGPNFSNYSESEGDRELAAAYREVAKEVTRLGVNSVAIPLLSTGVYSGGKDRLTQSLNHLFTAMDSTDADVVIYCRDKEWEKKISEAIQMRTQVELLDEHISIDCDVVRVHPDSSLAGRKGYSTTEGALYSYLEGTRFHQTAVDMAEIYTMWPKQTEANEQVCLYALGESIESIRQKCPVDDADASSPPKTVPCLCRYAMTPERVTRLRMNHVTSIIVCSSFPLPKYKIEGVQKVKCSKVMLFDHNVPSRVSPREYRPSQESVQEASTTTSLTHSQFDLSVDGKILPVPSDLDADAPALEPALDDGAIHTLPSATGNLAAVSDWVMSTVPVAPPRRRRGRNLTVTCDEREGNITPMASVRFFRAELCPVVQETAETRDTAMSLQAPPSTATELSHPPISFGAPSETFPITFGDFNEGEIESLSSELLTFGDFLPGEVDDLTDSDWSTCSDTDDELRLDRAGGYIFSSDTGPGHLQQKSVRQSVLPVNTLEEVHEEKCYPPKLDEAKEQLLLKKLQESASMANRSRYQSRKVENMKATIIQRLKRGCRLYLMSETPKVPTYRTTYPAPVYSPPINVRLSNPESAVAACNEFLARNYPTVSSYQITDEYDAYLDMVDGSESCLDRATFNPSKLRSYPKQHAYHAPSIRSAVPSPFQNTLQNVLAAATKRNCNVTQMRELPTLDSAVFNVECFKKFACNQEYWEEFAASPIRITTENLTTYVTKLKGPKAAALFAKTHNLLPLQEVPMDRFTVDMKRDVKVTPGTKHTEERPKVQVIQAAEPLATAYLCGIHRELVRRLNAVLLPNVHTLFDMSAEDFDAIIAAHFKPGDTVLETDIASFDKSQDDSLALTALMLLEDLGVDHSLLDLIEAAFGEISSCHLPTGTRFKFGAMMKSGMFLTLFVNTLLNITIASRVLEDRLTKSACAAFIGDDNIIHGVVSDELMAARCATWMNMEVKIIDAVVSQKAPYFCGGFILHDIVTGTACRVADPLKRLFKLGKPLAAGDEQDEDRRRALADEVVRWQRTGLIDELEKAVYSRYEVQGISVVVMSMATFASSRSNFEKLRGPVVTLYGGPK
Numbers without * were called inactive; i = inactive; ? = inconclusive; & = joins results of further samples; [ ] = another dose, or the depositor's remark. % is set by controls: 0 for no effect and ±100 for the full control effect; potency is the fitted concentration of half-maximal effect. A portion of the library, so the mix of outcomes need not match the whole.

A first look:
SMILES	nsP2pro inh
CCOc1cc(CC(=O)N[C@@H](CC(C)C)c2ccccc2N2CCCCC2)ccc1C(=O)O	-5%&5%
C/C=C/C=C/C(O)=C1\C(=O)[C@]2(C)C3C(C(=O)CC/C=C/C)=C(O)C4(C)C1[C@]1(C)O[C@@]4(O)[C@@]3(C)O[C@@]12O	-6%[10 µM]
CCc1cccc(C)c1NS(=O)(=O)c1ccc2c(c1)NC(=O)C(C)C(=O)N2 (configuration not stated)	-16%
CCn1nnc2cc(C(=O)Nc3ccc(Br)cc3F)ccc21	-15%
Cc1ccc(OCc2nc(C3CCCCN3C(=O)c3ccncc3)no2)cc1 (configuration not stated)	-8%
CCN(CC)CCNc1ccc2ncn3c4ccc(O)cc4c(=O)c1c23	101%[activator]
NC(=O)[C@@H]1CN(Cc2ccccn2)C[C@H]1COc1ccccc1	i

All compounds of this part, from the start:
SMILES	nsP2pro inh
CCOc1cc(CC(=O)N[C@@H](CC(C)C)c2ccccc2N2CCCCC2)ccc1C(=O)O	-5%&5%
C/C=C/C=C/C(O)=C1\C(=O)[C@]2(C)C3C(C(=O)CC/C=C/C)=C(O)C4(C)C1[C@]1(C)O[C@@]4(O)[C@@]3(C)O[C@@]12O	-6%[10 µM]
CCc1cccc(C)c1NS(=O)(=O)c1ccc2c(c1)NC(=O)C(C)C(=O)N2 (configuration not stated)	-16%
CCn1nnc2cc(C(=O)Nc3ccc(Br)cc3F)ccc21	-15%
Cc1ccc(OCc2nc(C3CCCCN3C(=O)c3ccncc3)no2)cc1 (configuration not stated)	-8%
CCN(CC)CCNc1ccc2ncn3c4ccc(O)cc4c(=O)c1c23	101%[activator]
NC(=O)[C@@H]1CN(Cc2ccccn2)C[C@H]1COc1ccccc1	i
CCOc1ccc(-c2cc(NC(=O)c3ccc(C)cc3)c(C(=O)OC)s2)cc1	-5%
O=C(O)c1cn(Cc2ccc(F)cc2Cl)nn1	?
Cc1cnccc1NCCn1ccnc1-c1cc2n(n1)CCCNC2	i
C[C@@H]1O[C@@H](O[C@H]2[C@H](Oc3cc(O)c(C(=O)CCc4ccc(O)cc4)c(O)c3)O[C@H](CO)[C@@H](O)[C@@H]2O)[C@H](O)[C@H](O)[C@H]1O	0%
COC1CC(O[C@H]2CC[C@]3(C)C4CC[C@@]5(C)C(=O)[C@]4(CC[C@@H]3C2)CC[C@@H]5C2=CC(=O)OC2)OC(C)C1OC1OC(COC2OC(CO)C(O)C(O)C2O)C(O)C(O)C1O (some centres not stated)	-7%[5.1 µM]
CCCOc1ccc(C(=O)Nc2cccc(NC(=O)c3ccc(Cl)cc3Cl)c2)cc1	-4%
COCCCNC(=O)c1cc(C)nc2onc(C3CCCNC3)c12 (configuration not stated)	-25%
Cc1ccc(CCN2C(=O)c3ccc(C(=O)O)cc3C2=O)cc1	1%
Cc1[nH]c(=O)c(C#N)cc1-c1ccncc1	-24%&-8%
COc1cccc2c1Oc1ncccc1N(C(=O)Nc1ccc(F)c(Cl)c1)C2	-9%
CCOC(=O)c1c(NC(=O)c2nc(S(C)(=O)=O)ncc2Cl)sc(C(C)=O)c1C	?
Cc1ccc(CNc2ncnc3ccc(-c4ccoc4C)cc23)o1	i
O=C(Nc1nnc(-c2ccncc2)s1)NC12CC3CC(CC(C3)C1)C2	i
COc1ccc(-c2ccc(CCC(=O)O)n2CC(=O)Nc2cccc(C(F)(F)F)c2)cc1	?
CC(NC(=O)C1(c2cccs2)CCOCC1)c1ccccc1 (configuration not stated)	-10%
Cc1ccc(N(Cc2cccs2)C(=O)c2ccc(Br)o2)cc1	-19%
Cc1ccc(CNC(=O)c2ccc3c(O)c(S(=O)(=O)c4ccccc4)c(=O)[nH]c3c2)cc1	?
O=C(NCc1ccccc1Cl)C1CCCN(C(=O)c2cnn(-c3ccc(F)cc3)c2-n2cccc2)C1 (configuration not stated)	-15%

An excerpt of these results, field by field:
CCCOc1ccc(C(=O)Nc2cccc(NC(=O)c3ccc(Cl)cc3Cl)c2)cc1
  nsP2pro inh: -4%
O=C(O)c1cn(Cc2ccc(F)cc2Cl)nn1
  nsP2pro inh: ?
Cc1[nH]c(=O)c(C#N)cc1-c1ccncc1
  nsP2pro inh: -24%&-8%
CCOC(=O)c1c(NC(=O)c2nc(S(C)(=O)=O)ncc2Cl)sc(C(C)=O)c1C
  nsP2pro inh: ?

(further entries)
SMILES	nsP2pro inh
N[C@@H](Cc1ccc(OS(=O)(=O)c2ccccn2)cc1)C(=O)N1CCN(c2ccccc2)CC1	0%
O=C(Nc1ccc2c(c1)OCO2)c1cc(-c2ccc(Br)cc2)on1	-22%
CC1=C(C(=O)Nc2nc3ccccc3s2)C(c2nn(C)cc2Cl)N=C(Nc2nc3ccccc3o2)N1 (configuration not stated)	-1%
COc1ccc(CNC(=O)c2cnn3c(C)c(Cc4c(F)cccc4Cl)c(C)nc23)cc1	-12%
CCCn1c(C)nc2c(N3CCN(C)CC3)nc(C)nc21	i
CC(C)c1ccc(C2c3c(-c4ccccc4O)n[nH]c3C(=O)N2Cc2ccncc2)cc1 (configuration not stated)	4%
CNc1cc(C2CC(Nc3nc(N)nc(C)c3Cl)C2)nc(COC)n1 (configuration not stated)	0%
CC(=O)NC(C)c1ccc(Oc2ccc(OC(C)C)cc2)cc1 (configuration not stated)	3%[39.2 µM]
CC(=O)N1Cc2ccccc2CC2(CCN(Cc3ccc(O)cc3)CC2)C1	-17%
CCOc1ccccc1CNC(=O)C1CCN(S(=O)(=O)c2ccc3[nH]c(=O)ccc3c2)CC1	-21%
CCn1c(C)ccc(C(=O)N2CCc3[nH]nc(-c4ccccc4F)c3C2)c1=O	i
CN(CCCCCCCCCCN(C)C(=O)Oc1cccc([N+](C)(C)C)c1)C(=O)Oc1cccc([N+](C)(C)C)c1	20%
COc1c(N2CCNC(C)C2)c(F)cc2c(=O)c(C(=O)O)cn(C3CC3)c12 (configuration not stated)	1%
Cc1ccc(=O)n(CC(=O)NCCc2ccccc2)n1	-1%
CCCCn1c(=N)c(C(=O)NC2CCCCC2)cc2c(=O)n3cccc(C)c3nc21	-13%
Cc1cccc(OCC(=O)NCc2nnc3c(-c4nc(C)no4)cccn23)c1	i
CCc1ccccc1NC(=O)CCc1c(C)nn(-c2ccc(N3CCOCC3)nn2)c1C	-13%
FC(F)(F)c1ccc(-c2nc(-c3nnc4n3CCCCC4)c(C(F)(F)F)o2)cc1	?
OC[C@@H]1CN(Cc2cccnc2)C[C@H]1c1ccccn1	-16%
CN(CCc1noc(C2CN(S(=O)(=O)c3ccccc3)C2)n1)C(=O)c1ccncc1	-4%
COc1ccc(/C=C/C(=O)Nc2cc(-c3nc4ccccc4o3)ccc2OC)cc1	-33%
Cc1cccc(-n2c(=O)c3c(c4cc(C)ccc4n3C)n(C)c2=O)c1	-15%
NC(=O)C1CCN(c2nc(-c3ccc4occc(=O)c4c3)cs2)CC1	i
O=C(c1ccc2c(c1)N(Cc1ccc(Cl)cc1)C(=O)c1ccccc1S2=O)N1CCOCC1 (configuration not stated)	3%
Cc1ccc([S+](=O)([O-])N2CCCC2C(=O)N2CCC(c3nc4ccncc4[nH]3)CC2)cc1 (configuration not stated)	1%
Remaining list, next part:
SMILES	nsP2pro inh
COc1cccc(NC(=S)N2CCN(c3ncc(C(F)(F)F)cc3Cl)CC2)n1	-29%
Cc1cc(C)nc(NC(=S)N2CCN(c3cc(Cl)c(Cl)c(Cl)c3)CC2)c1	-2%
COc1ccccc1CCNC(=O)C(=O)NCC(c1ccc2c(c1)OCO2)N1CCOCC1 (configuration not stated)	-13%
COc1ccc(C2=NN(CC(=O)NCCCN(C)c3ccccc3)C(=O)CC2)cc1	-30%
COc1cccc(-c2cc(CC3(O)CCN(c4nnc(C)o4)CC3)on2)c1	3%
CN[C@@H]1[C@H](O[C@H]2[C@H](O[C@@H]3[C@@H](O)[C@H](O)[C@@H](N=C(N)N)[C@H](O)[C@H]3N=C(N)N)O[C@@H](C)[C@]2(O)CO)O[C@@H](CO)[C@H](O)[C@H]1O	9%
CCn1c(CO)nnc1C1CC(NC(=O)c2oc3cc(OC)ccc3c2C)C1 (configuration not stated)	i
COc1ccc(CC(=O)NCc2ccccc2-c2ccccc2C(=O)NCCc2cccnc2)cc1	-4%
Cc1cc(NC(=O)COCc2cc(-c3ccc(F)cc3)on2)ccc1Br	-18%
Cc1sc(NC(=O)Cc2ccc3c(c2)OCO3)nc1-c1ccc2c(c1)CCN2C(=O)c1ccccc1Cl	-2%
NCCCCC(=O)O	-15%
O=C(CN1C(=O)C2(SCC(=O)N2c2cccc(F)c2)c2ccccc21)NCc1ccccc1Cl (configuration not stated)	2%
Cc1ccc2nsnc2c1S(=O)(=O)Nc1cccc2cccnc12	i
COc1ccc(Nc2cc(C(=O)NCc3cccs3)c3ccccc3n2)cc1	-21%
O=C(Nc1ccc(Cl)c(Cl)c1)Nc1nnc(C2CCCCC2)s1	-3%
COc1cccc(C(c2sc3nc(-c4ccco4)nn3c2O)N2CCN(C)CC2)c1 (configuration not stated)	10%
CC(=O)N[C@@H](CC(C)C)C(=O)N[C@@H](CC(C)C)C(=O)N[C@H](C=O)CCCN=C(N)N	?
CCN1CCN(C(=O)C2CCc3ncc(-c4ccsc4)n3C2)CC1 (configuration not stated)	i
CC(=O)NCCC(=O)N1CCC2(CC1)CN(C(=O)NC(C)C)CCO2	-4%
Cc1ccsc1C(=O)N1CC(Oc2ccccc2-c2nc(-c3cnccn3)no2)C1	5%
O=C1COc2ccc(N3CCOCC3)nc2CN1Cc1ccc(F)cc1	11µM*
CCOc1ccc(CNS(=O)(=O)c2ccc3[nH]c(=O)ccc3c2)cc1	-21%
Cc1cccc(-n2cc(CN(C)C(C)c3ccon3)c(-c3cccc(F)c3)n2)c1 (configuration not stated)	i
COc1cc(NS(=O)(=O)c2ccc([N+](=O)[O-])cc2)c2ncccc2c1	98%[activator]
COc1cccc(-c2ccc3ncnc(N(C)Cc4ccco4)c3c2)c1	i
The listing continues.
SMILES	nsP2pro inh
COC(=O)C1=C(C)NC(c2ncc(F)cc2F)=N[C@H]1c1ccc(F)cc1Cl	?
CNC(=O)c1cnn2c(C)cc(C)nc12	-6%
O=C(NC1CCCC1)c1cc(CN2CCOCC2)on1	-7%
CO[C@H]1C=C2C(CC[C@H](O[C@@H]3O[C@H](CO)[C@@H](O)[C@@H](O)[C@H]3O)C2(C)C)[C@]2(C)CC[C@]3(C)C([C@H](C)C(O)C(C=C(C)C)O[C@@H]4O[C@H](CO)[C@@H](O)[C@@H](O)[C@H]4O)CC[C@@]3(C)C12 (some centres not stated)	?
CC[C@H]1OC(=O)[C@H](C)[C@@H](O[C@H]2C[C@@](C)(OC)[C@@H](O)[C@H](C)O2)[C@H](C)[C@@H](O[C@@H]2O[C@H](C)C[C@H](N(C)C)[C@H]2O)[C@](C)(OC)C[C@@H](C)C(=O)[C@H](C)[C@@H](O)[C@]1(C)O	?
O=C(NC1CCCc2c1cnn2-c1ccc(F)cc1F)C1CCCCN1 (configuration not stated)	-3%
Cc1cc(Cl)ccc1NC(=O)CCS(=O)(=O)c1cc2c(cc1C)NC(=O)CO2	-15%
COc1ccc(-c2nnc3n2CCN([S+](=O)([O-])c2c(C)noc2C)C3)cc1	2%
CCOc1ccccc1NS(=O)(=O)c1cc(-c2cnc(C3CC3)o2)ccc1C	-6%
COc1ccc(CCN2C(=O)N(c3cccc(C)c3)C(=O)C2CC(=O)Nc2ccccc2)cc1OC (configuration not stated)	-10%
CCCCN1C(=O)c2ccccc2C(C(=O)Nc2nncs2)C12CCCC2 (configuration not stated)	i
O=C(NCc1ccc(F)cc1)c1cnc2n[nH]c(-c3ccccc3)c2n1	0%[39.2 µM]
Nc1ccc(N2CCN(c3ncc(C(F)(F)F)cc3Cl)CC2)c(C(F)(F)F)c1	-9%
CCOc1ccc(NC(=O)c2c(NCc3cccs3)sc3c2CCCCC3)cc1	?
O=C(NC1CCCCCC1)C1CCN(C(=O)N2CCOc3ccccc32)CC1	-20%
Fc1ccc(-c2nc(-c3ccncc3)nc3ccccc23)cc1F	-7%
CCCCC(CC)COC(=O)c1ccc(Nc2nc(Nc3ccc(C(=O)OCC(CC)CCCC)cc3)nc(Nc3ccc(C(=O)OCC(CC)CCCC)cc3)n2)cc1 (configuration not stated)	-6%
C=C1C2CCC3C(CCC4[C@@]3(C)CCC[C@@]4(C)C(=O)O)(C2)[C@@H]1OC(=O)/C(C)=C\C (some centres not stated)	1.4µM*
O=S(=O)(c1c(F)cccc1F)C1CCN(S(=O)(=O)c2ccc3c(c2)OCCO3)CC1	-5%
NC(N)=NCC1COC2(CCCCC2)O1 (configuration not stated)	3%
CCN(CC)CCOC(=O)c1cccnc1	-5%
CCOC(=O)c1nnn(C(CC)C(=O)Nc2c(C)cccc2C)c1C(=O)OCC (configuration not stated)	-21%
O=c1cc(N2CCN(c3ccc(F)cc3)CC2)[nH]c(=O)n1-c1cccc(Br)c1	-11%
OC[C@H]1C[C@@H](NC2CCC2)[C@H](O)[C@@H]1O	i
CCN1C(=O)C2CC3(CCN(Cc4cnn(CC)c4C)CC3)CN2C1=O (configuration not stated)	0%
C[C@H]1CCC[C@H](O)CCC/C=C/c2cc(O)cc(O)c2C(=O)O1	3%
Cc1ccc2oc(-c3cccc(NC(=O)c4cccc5c(Cl)cccc45)c3)nc2c1	-11%
CCn1ccc(C(=O)N2[C@H]3CC[C@@H]2c2cnc(C)nc2C3)n1	i
COCCN1CC2(CCCN(Cc3cc(C(C)(C)C)n[nH]3)C2)CCC1=O (configuration not stated)	1%
